# Bioassay records from PubChem BioAssay.
# OPRM1-OPRD1 ag – agonists of OPRM1-OPRD1 heterodimerization, primary screen, cell-based, luminescence; Mu-type opioid receptor (Homo sapiens) + Delta-type opioid receptor (Homo sapiens), …; cells; actives 0.3% (n = 340,000); activation, % at 9.3 µM; in the data active means activation above about 18%;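 further: 0% = vehicle-treated cells and 100% = reference agonist; values of inactives mirror those of a sister screen read the other way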
# PKA-R1A activ – activators of PKA-R1A holoenzyme, primary screen, biochemical, fluorescence polarization, Cy5-IP20, bovine R1A, mouse PKAc; PKA-R1A dissociation; scaled: DMSO 0%, 113 µM cGMP 100%; actives 0.083% (n = 340,000); cAMP-dependent protein kinase type I-alpha regulatory subunit (Bos taurus) + …; AID 504707, 2011; activation, % at 11.4 µM;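 active means percent activation above the mean of all tested compounds plus 3 SD, cut at about 19% in these data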;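 further: higher means more PKAc released from R1A so a rise in polarization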
# SUMO Mot1 rescue – yeast Mot1-301 growth rescue at high temperature, primary screen, SUMOylation pathway inhibitor project, S. cerevisiae, ATP luminescence, 38.5C; S. cerevisiae Mot1-301 growth rescue; percent above DMSO median, 100 means doubled; growth rescue, % at 18.8 µM; actives 1% (n = 320,000); AID 2716, 2010;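 active means every valid replicate shows activation above 250% relative to neutral control wells; inactive means the rest, any valid replicate at or below 250%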;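 further: OY570 slx delta 5 strain wells were the positive control but not used for scaling; some compounds called inactive have numbers as strong as hits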
# HTR5A inv ctr – HTR5A inverse agonists in luminescence cell assay, primary screen, counter-screen for OPRM1-OPRD1 heterodimer inverse agonist project, full-deck HTS | 5-hydroxytryptamine receptor 5A (Homo sapiens), P47898 | HTR5A cell line, inverse agonism | inhibition, % at 9.3 µM | actives 0.083% (n = 340,000) | AID 504634, 2011; in the data active means inhibition mostly above about 23%, no sharp cut-off; inactive means mostly below about 18%;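 further: 0% = cells with DMSO and 100% = no-cell wells with DMSO; some compounds called inactive have numbers as strong as hits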
# DSG3 Ab inh – inhibitors of pemphigus antibody binding to DSG3, primary screen, biochemical, bead-based, flow cytometry, scFv-GFP | Desmoglein-3 (Homo sapiens), P32926 | actives 0.48% (n = 310,000) | binding (percent of control), % at 10 µM | DSG3-coupled beads, scFv-anti-DSG3-GFP binding; hits give low values | AID 588358, 2011;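 active means binding more than 3 SD below its plate's average and above zero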;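 further: hits lower antibody fragment binding to DSG3; some compounds called inactive have numbers as strong as hits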
# Target sequence (P32926 whole entry, looked up, the tested form may be a part): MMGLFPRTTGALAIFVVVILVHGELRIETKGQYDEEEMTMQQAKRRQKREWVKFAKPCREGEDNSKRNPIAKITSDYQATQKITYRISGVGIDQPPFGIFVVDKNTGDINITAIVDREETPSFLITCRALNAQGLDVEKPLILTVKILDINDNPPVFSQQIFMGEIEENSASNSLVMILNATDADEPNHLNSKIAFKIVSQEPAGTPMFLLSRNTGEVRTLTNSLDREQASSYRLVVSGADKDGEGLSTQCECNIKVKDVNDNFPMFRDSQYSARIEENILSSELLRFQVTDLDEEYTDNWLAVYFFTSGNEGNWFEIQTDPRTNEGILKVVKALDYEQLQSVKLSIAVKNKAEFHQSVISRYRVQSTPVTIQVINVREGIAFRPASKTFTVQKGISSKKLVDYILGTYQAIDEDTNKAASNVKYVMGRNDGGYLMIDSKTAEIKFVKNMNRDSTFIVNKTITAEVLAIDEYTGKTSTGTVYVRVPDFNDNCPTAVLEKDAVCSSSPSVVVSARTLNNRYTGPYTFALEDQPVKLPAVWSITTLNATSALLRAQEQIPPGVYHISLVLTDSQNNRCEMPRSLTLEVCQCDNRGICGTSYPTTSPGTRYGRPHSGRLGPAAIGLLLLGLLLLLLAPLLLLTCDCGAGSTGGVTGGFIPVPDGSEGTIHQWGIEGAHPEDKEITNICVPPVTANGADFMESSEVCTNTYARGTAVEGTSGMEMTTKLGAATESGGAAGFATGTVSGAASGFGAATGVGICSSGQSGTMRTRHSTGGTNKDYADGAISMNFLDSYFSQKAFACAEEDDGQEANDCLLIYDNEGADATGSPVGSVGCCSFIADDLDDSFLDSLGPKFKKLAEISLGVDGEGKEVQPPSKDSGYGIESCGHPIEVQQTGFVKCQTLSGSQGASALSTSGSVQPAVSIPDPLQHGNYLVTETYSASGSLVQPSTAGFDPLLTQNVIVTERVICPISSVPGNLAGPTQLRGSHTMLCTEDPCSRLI
# PfHsp90 set2 – growth inhibition of PfHsp90-expressing yeast, primary screen, antimalarial PfHsp90 inhibitor project, S. cerevisiae, BacTiter-Glo luminescence, single point, set 2; BacTiter-Glo ATP, 48 h; yeast lacking PDR1 and PDR3 efflux regulators; inhibition, % at 9.4 µM; actives 0.32% (n = 310,000); AID 504621, 2011;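 active means every replicate shows inhibition above about 80%, whatever the replicate mean, limit read from the data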;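 further: 0% = DMSO neutral controls and 100% = 20 µM radicicol positive controls; yeast relying on Plasmodium falciparum Hsp90 in place of its own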
# HTR5A ag ctr – HTR5A agonists in luminescence cell assay, primary screen, counter-screen for OPRM1-OPRD1 heterodimer agonist project, full-deck HTS. 5-hydroxytryptamine receptor 5A (Homo sapiens), P47898. cell-based. activation, % at 9.3 µM. actives 0.61% (n = 340,000); in the data active means activation mostly above about 9.5%, no sharp cut-off; inactive means mostly below about 7.6%;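 further: 0% = cells with vehicle only and 100% = reference agonist; strong numbers were not always called active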
# OPRM1-OPRD1 inv – inverse agonists of MOR-DOR heterodimerization, primary screen, cell-based, luminescence; Mu-type opioid receptor (Homo sapiens) + Delta-type opioid receptor (Homo sapiens), …; cell-based MOR-DOR heterodimer luminescence, inverse agonism; inhibition, % at 9.3 µM; actives 0.21% (n = 340,000); AID 504357, 2011; in the data active means inhibition above about 22%, passing the limit was not always enough;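 further: 0% = cells with DMSO and 100% = wells without cells with DMSO; values of inactives mirror those of a sister screen read the other way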
# Starred values were filed as active, the others as inactive; / = not tested or not shown. These rows are one share of the data; rates above refer to the full screens.
smiles,OPRM1-OPRD1 ag,PKA-R1A activ,SUMO Mot1 rescue,HTR5A inv ctr,DSG3 Ab inh,PfHsp90 set2,HTR5A ag ctr,OPRM1-OPRD1 inv
CCOC(=O)N1CCN(C(=O)c2ccc3c(=O)n(-c4ccc(F)cc4)c(=S)[nH]c3c2)CC1,0.9,-9,14,-14,/,/,3,-5
Cc1ccc(CNc2ccc(O)cc2)cc1,11,-1,/,9,98,28,-2,-63
COC(=O)c1ccc(C23CC4(C2)[C@H](CN(Cc2cccnc2)[C@@H]4c2ccccc2)C3c2ccc(Cl)nc2)cc1 (stereo partly drawn),19*,5,13,14,96,/,2,-106
O=C(O)CSCC(=O)NCc1ccc(Cl)cc1Cl,-2.6,1,14,10,96,1,-4,13
CCC(C)(C)NC(=O)C(c1ccc(C)o1)N(Cc1cccs1)C(=O)Cn1nnc2ccccc21 (stereo not drawn),-0.6,5,37,5,96,3,3,4
O=C(O/N=C\c1ccc(N2CCCCC2)c([N+](=O)[O-])c1)c1cccc(Cl)c1,-1.7,3,-9,6,105,6,-2,10
O=[n+]1cc(-c2ccccc2)n([O-])c2c1CCCCC2,0.2,6,-15,-41,99,-8,11*,-1
C/C(=N/OCO/N=C(/C)c1ccc(F)cc1)c1ccc(F)cc1,2.6,-7,-10,13,126,50,2,-14
C=CCn1c(C(CC)CC(C)(C)O)n[nH]c1=S (stereo not drawn),-0.6,10,-2,21,106,1,7,4
Cc1sc2c(c1C)CN(C(C)(C)C)CN2C(=O)c1ccccc1,-0.5,0,-12,-13,105,6,0,3
O=C1CC(N2CCN(c3nc4ccccc4s3)CC2)C(=O)N1c1cccc(F)c1 (stereo not drawn),-0.2,2,/,-13,100,/,-2,1
COc1ccc(NC(=O)CCCNC(=O)Cn2cnc3sc(C)c(C)c3c2=O)cc1Cl,-0.1,-6,10,-3,124,3,1,1
Cc1cccc(-c2cccc(NC(=O)C3CCCN(Cc4cccnc4)C3)c2)c1 (stereo not drawn),1.5,-2,5,-29,110,6,0,-8
C=CCS(=O)(=O)N1CCC(CCOc2ccccc2)(C(=O)OCC)CC1,1.2,-7,-28,5,100,30,10,-6
CC(C)C(=O)NC(Nc1cc(C(F)(F)F)ccc1Cl)C(Cl)(Cl)Cl (stereo not drawn),5.5,-1,-5,5,94,7,8,-34
CCOc1ccc(N(CC(=O)NCCOc2ccc(C)cc2)S(=O)(=O)c2ccccc2)cc1,0.1,-2,5,-28,99,3,8,-1
O=C(O)c1cccc(-n2cccc2/C=C2/SC(=O)N(CC(=O)N3CCCC3)C2=O)c1,-0.1,1,35,-2,106,4,1,1
CCC1(c2ccc(F)cc2)NC(=O)N(CC(=O)Nc2cc(S(=O)(=O)N(C)C)ccc2Cl)C1=O (stereo not drawn),-2.2,1,-13,3,92,-21,-1,11
O=C(c1ccc(F)cc1)C1CCN(C(=O)c2ccccc2F)CC1,-0.2,-1,-16,-14,111,24,4,1
CC(=O)Nc1ccc(S(=O)(=O)NC2(C(F)(F)F)C(=O)Nc3c2c(=O)[nH]c(=O)n3Cc2ccco2)cc1 (stereo not drawn),-0.9,8,-6,8,100,23,-3,5
O=C(Cn1c2ccccc2c(=O)c2cc([N+](=O)[O-])ccc21)Nc1ccccc1Cl,-0.7,5,-13,30,92,-8,4,5
C=CCC(C#N)(c1ccc(OC)c(OC)c1)c1cnccn1 (stereo not drawn),-2.1,10,15,-22,98,2,-2,11
CCC(=O)NC(=S)Nc1ccc(NC(=O)c2ccco2)c(Cl)c1,/,/,-1,/,99,1,/,/
COc1ccc(Nc2nc(N)nc(CCl)n2)cc1,21*,-2,2,-176,100,-1,48*,-108
O=C(CSCc1ccc([N+](=O)[O-])cc1)NN=C1CCCCCC1,1.8,15,-8,-17,80,13,7,-11
CN=C(Nc1cc(C)nn1-c1ccccc1)c1ccccc1F,-0.7,-1,6,-10,92,9,-1,4
NS(=O)(=O)c1ccc(NC(=O)c2ccccc2C(=O)N2CCCCC2)cc1,-2.4,3,-9,-2,101,/,-2,13
CCOc1cc(/C=N/n2cnnc2)ccc1OC(=O)c1cccc([N+](=O)[O-])c1,-2.0,-10,-12,13,102,0,-4,12
CN1C(=O)C(N=Nc2ccccc2C(=O)O)N(C)C1=S (stereo not drawn),-1.2,-15,-6,-5,97,21,2,7
COc1ccc(/C=N/NC(=O)CO/N=C(\C)c2cccs2)cc1,-0.5,-13,-10,-15,89,3,-3,3
Cc1ccc(S(=O)(=O)N2CCN(c3ncnc4ccccc34)CC2)cc1,2.2,-17,-8,1,105,0,0,-9
COCCNC(=O)C(c1ccncc1)N(Cc1ccccc1)C(=O)Cn1nnc2ccccc21 (stereo not drawn),0.3,12,20,2,89,-4,-1,-2
CCOC(=O)c1c(C)n(C)c2ccc(OC)c(NC(=O)CN3CCN(C(=O)c4ccco4)CC3)c12,-3.2,-1,38,-5,/,37,2,13
COc1ccccc1Nc1ccc(NS(=O)(=O)c2ccc(C(C)=O)cc2)cc1,-1.4,-3,-2,10,91,-1,-3,8
N#Cc1nc(Cc2cccc3ccccc23)oc1N1CCN(c2ccccc2)CC1,-1.0,0,-15,14,95,5,2,5
O=C(O)c1ccc(S(=O)(=O)N2CCC(NC(=O)C3CCCCC3)CC2)cc1,0.5,-1,3,7,122,2,6,-4
CCOc1ccc(NC(=O)c2cc(C3CC3)nc3c2cnn3C(C)C)cc1OC,-0.6,1,-1,0,101,-36,0,3
O=C(Nc1nc2cc3c(cc2s1)OCCO3)c1ccncc1,-0.8,-3,/,-6,100,-27,2,4
CC1CCCC(C)N1C(=S)NCc1ccco1 (stereo not drawn),-1.2,3,13,-48,117,-23,1,6
O=C1/C(=C\c2ccc(C(F)(F)F)cc2)CSc2sccc21,5.5,-2,-19,3,/,-3,-1,-27
CCN(CCNC(=O)C1CCCN(c2ncnc3c2nc2n3CCCCC2)C1)Cc1ccccc1 (stereo not drawn),-1.9,-7,-11,2,128,2,0,9
COc1ccc(OCC(=O)Nc2cc(OC)cc(OC)c2)cc1,1.3,-5,0,0,87,15,0,-8
CC12CCC(C(=O)N(CC(O)CN3CCCCC3)C1=O)C2(C)C (stereo not drawn),-1.0,-9,-15,1,121,14,-1,6
CC(C)CC(=O)NCc1ccc2[nH]c3c(c2c1)CCCC3,-2.0,-10,/,5,97,-14,-2,11
CCCC(C)NC(=O)c1cccc(Oc2ccccc2)c1 (stereo not drawn),1.3,-9,9,-12,97,-14,4,-7
Cc1cc(/C=N\NC(=O)COc2cccc3cccnc23)c(C)n1-c1ccccc1,0.1,-4,42,3,107,1,-3,-1
CC1CCCC(C)N1CCCNC(=O)c1nn(C)c2c1CSc1ccccc1-2 (stereo not drawn),0.4,-2,9,-1,99,15,5,-2
CC(=O)CCc1oc2ccc([N+](=O)[O-])cc2c1-c1ccc(C)o1,-2.6,-8,-18,-7,102,12,3,13
O=C(N/N=C/c1ccc2c(c1)OCO2)c1ccc(Br)o1,1.3,2,-18,-8,93,13,4,-7
O=C(NCC1CCN(Cc2cccc(Cl)c2)CC1)Nc1ccccc1Cl,2.9,-2,1,-6,/,5,2,-14
Fc1cccc(CN2CCCCCCC2)c1,0.4,16,-4,-11,107,-46,6,-2
COc1cc(C(=O)NC2CCN(C)CC2)ccc1Nc1ncc2c(n1)N(C1CCCCC1)CCC(=O)N2C,-2.5,-17,/,14,103,-4,-6,14
CN(NS(=O)(=O)c1ccc(Cl)cc1)c1ncc(C(F)(F)F)cc1Cl,8.4,4,13,-5,100,-9,2,-61
O=C(O)C1C2C=CC(C2)C1C(=O)NCCC1=CCCCC1 (stereo not drawn),-0.2,-2,-21,-14,106,8,5,1
Cc1nc2ccc(Cl)cc2n1C,/,14,/,/,107,/,/,/
CCCCOC(=O)C1=C(C)Nc2nnnn2C1c1ccc(OC)c(OC)c1OC (stereo not drawn),-2.4,-13,441,5,101,-14,-2,11

# Some of these compounds in order of length of the SMILES, descending:
smiles,OPRM1-OPRD1 ag,PKA-R1A activ,SUMO Mot1 rescue,HTR5A inv ctr,DSG3 Ab inh,PfHsp90 set2,HTR5A ag ctr,OPRM1-OPRD1 inv
COc1cc(C(=O)NC2CCN(C)CC2)ccc1Nc1ncc2c(n1)N(C1CCCCC1)CCC(=O)N2C,-2.5,-17,/,14,103,-4,-6,14
CN(NS(=O)(=O)c1ccc(Cl)cc1)c1ncc(C(F)(F)F)cc1Cl,8.4,4,13,-5,100,-9,2,-61
O=C(NCC1CCN(Cc2cccc(Cl)c2)CC1)Nc1ccccc1Cl,2.9,-2,1,-6,/,5,2,-14
O=C(N/N=C/c1ccc2c(c1)OCO2)c1ccc(Br)o1,1.3,2,-18,-8,93,13,4,-7

# New compounds follow:
smiles,OPRM1-OPRD1 ag,PKA-R1A activ,SUMO Mot1 rescue,HTR5A inv ctr,DSG3 Ab inh,PfHsp90 set2,HTR5A ag ctr,OPRM1-OPRD1 inv
Cc1cccc(CS(=O)(=O)Cc2ccc(C(=O)NC3CCCCCC3)o2)c1,-3.2,2,5,12,99,-37,0,16
O=C(CN1C(=O)C2C3C=CC(C3)C2C1=O)Nc1nncs1 (stereo not drawn),-2.4,-13,-4,0,106,10,0,14
COc1ccccc1NS(=O)(=O)c1cc(C(=O)N2CCCCCCC2)ccc1C,1.1,-5,-20,7,116,/,-2,-7
C/C(CC1CC2=C(CC1(C)C)C(C)(C)CCC2)=N\NC(N)=S (stereo not drawn),7.3,13,18,7,116,-18,16,-43
O=C(N/N=C/c1ccc(OC(=O)c2ccccc2Br)cc1)c1ccccn1,0.3,7,-3,-15,94,20,6,-1
Oc1ccc2ccccc2c1CNc1cnc2ccccc2c1,8.5,-5,-7,-13,103,0,8,-48
CCOc1ccccc1NC(=S)N(Cc1cc2ccc(C)cc2[nH]c1=O)CC1CCCN1CC (stereo not drawn),-0.1,-11,51,-3,106,14,1,1
CN(C(=O)COC(=O)c1cccnc1Nc1cccc(C(F)(F)F)c1)C1CCS(=O)(=O)C1 (stereo not drawn),1.4,-4,-20,5,/,-11,1,-7
C/C(=N\NC(=O)c1nnn(-c2nonc2N)c1CSc1ccc(Cl)cc1)c1cccnc1,-0.4,0,-5,3,/,16,-1,2
N#Cc1cnn(-c2ccccc2)c1NC(=O)c1ccccc1F,-3.5,0,-2,-11,101,/,3,14
CN1CCN(NC(=O)/C=C/c2cccc([N+](=O)[O-])c2)CC1,-0.6,-5,274,-2,104,8,0,4
Clc1ccc(-c2nnc(COc3ncnc4ccccc34)o2)cc1,-0.2,-12,4,-57,102,-28,-4,1
